D2 PAM: human D2 receptor positive allosteric modulation; DiscoveRx D2 beta-arrestin cells, luminescence, 90 min; 100% = 57 uM dopamine signal; potentiation, % (concentration not given with the values); actives 0.23% (n = 360,000); AID 624464; active = potentiation of 50% or more; inconclusive = 30% to 50%; inactive = 30% or less;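 further: compound concentration not given in the record; tested on top of an EC20 dose of dopamine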
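D2 cells co-treated with compound plus 50 nM dopamine (EC20) for 90 min at 37 deg C to detect potentiation. Beta-arrestin recruitment was read as enzyme-fragment luminescence after 1 h at ambient temperature. Full response was set by 57 uM dopamine.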
D2 agonist: agonists of human D2 dopamine receptor (beta-arrestin) | P14416 | DiscoveRx PathHunter D2 beta-arrestin, luminescence, 90 min; 100% = 57 uM dopamine signal | activation, % (no concentration beside the values) | actives 0.084% (n = 360,000) | AID 624465; in the data active = activation above about 40%; inconclusive = about 15% to 40%; inactive = below about 15%; further: compound concentration not given in the record; the text of the record calls up to 30% inactive
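DiscoveRx PathHunter D2 beta-arrestin cells (2,100/well) attached overnight, then compound-stimulated 90 min at 37 C in HBSS/10 mM HEPES/0.1% Tween-20 buffer; beta-galactosidase complementation read by luminescence after 1 h at ambient temperature. Dopamine 57 uM final (EC100) as control.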
Six1-Eya2 inh: inhibitors of human Six1/Eya2 interaction. AID 651725. AlphaScreen GST-Six1/His-Eya2 binding, biochemical; active compounds read low; control for the full effect not named in the record. Q15475+O00167. activity change, % (concentration not given with the values). actives 0.56% (n = 360,000); in the data active = activity change below about -65%; inconclusive = about -30% to -65%; inactive = above about -30%; further: on the % scale 0 is the no-effect control and ±100 the full control effect
Target sequence (O00167 whole entry, looked up): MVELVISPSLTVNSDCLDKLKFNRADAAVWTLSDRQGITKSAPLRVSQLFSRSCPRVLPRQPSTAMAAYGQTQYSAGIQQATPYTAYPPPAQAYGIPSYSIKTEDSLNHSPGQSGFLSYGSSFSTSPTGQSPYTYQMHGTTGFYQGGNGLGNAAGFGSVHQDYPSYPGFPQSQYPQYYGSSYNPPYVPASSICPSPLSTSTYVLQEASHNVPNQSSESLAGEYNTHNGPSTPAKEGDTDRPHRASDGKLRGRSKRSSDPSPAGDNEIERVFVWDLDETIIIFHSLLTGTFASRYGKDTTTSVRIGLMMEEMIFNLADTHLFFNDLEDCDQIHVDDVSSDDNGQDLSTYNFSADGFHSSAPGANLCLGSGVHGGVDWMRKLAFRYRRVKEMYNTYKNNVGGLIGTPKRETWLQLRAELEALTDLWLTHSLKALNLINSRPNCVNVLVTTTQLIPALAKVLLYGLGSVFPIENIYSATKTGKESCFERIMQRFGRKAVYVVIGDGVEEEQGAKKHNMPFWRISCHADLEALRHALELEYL
Target sequence (Q15475 whole entry, looked up): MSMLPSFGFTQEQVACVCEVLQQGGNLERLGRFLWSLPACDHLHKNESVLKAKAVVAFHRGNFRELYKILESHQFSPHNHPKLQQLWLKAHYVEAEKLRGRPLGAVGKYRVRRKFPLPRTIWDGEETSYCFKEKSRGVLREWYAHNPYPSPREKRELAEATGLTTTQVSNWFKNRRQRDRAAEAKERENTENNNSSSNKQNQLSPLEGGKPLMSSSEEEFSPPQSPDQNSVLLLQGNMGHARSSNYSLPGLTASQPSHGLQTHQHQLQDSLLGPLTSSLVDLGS
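Homogeneous AlphaScreen proximity assay pairing GST-Six1 with His-tagged Eya2 (added as 5X mix: 250 nM and 500 nM) in 50 mM Tris pH 8.0, 300 mM NaCl, 1 mM TCEP. Glutathione donor and nickel acceptor beads; 1 h, 37 °C, dark.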
CtBP-E1A inh: inhibitors of CtBP/E1A interaction | AlphaScreen GST-E1A/His-CtBP binding, 1536-well; active compounds read low; control for the full effect not named in the record | activity change, % (concentration not given with the values) | actives 0.49% (n = 340,000) | AID 651724; in the data active means activity change below about -65%; inconclusive means about -30% to -65%; inactive means above about -30%; further: on the % scale 0 is the no-effect control and ±100 the full control effect
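GST-E1A and His-tagged CtBP (125 nM each as 5X stock) were preincubated with pin-transferred compound for 2 h at 37 °C in the dark, then glutathione donor and nickel acceptor beads were added for 1 h before AlphaScreen reading.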
PINK1 expr mod: changes PINK1 expression; PINK1 immunofluorescence, high-content cytometry, 24 h; actives 0.2% (n = 410,000); Potency, µM (series often up to 76.6 µM), without a hit: at the highest dose activation (PINK1 increase), hits mostly activators; active = well fitted activation curve with a large enough effect; inconclusive = small, poorly fitted or top-dose-only effect; inactive = flat fitted curve, though single readings scatter; cell line not stated here;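 further: potency means the concentration at half of the fitted maximal effect; % of control where 0% means no effect; nearly all actives have a fitted effect of over 65% in size; a mitochondrial uncoupler was the plate control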
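Measures PINK1 amount and localization on or inside mitochondria by immunofluorescence. Stable cells get compounds at 5 concentrations for 24 hours before fixation and staining; CCCP controls included.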
TRPML1 agonist: human mucolipin-1 channel agonism | activation, % (concentration not given with the values) | TRPML1-expressing cells, Ca2+ dye fluorescence, FDSS; host cell line not named in the record; reference of the full effect not given here | actives 0.12% (n = 410,000) | Q9GZU1; in the data active = activation above about 50%; inconclusive = about 30% to 50%; inactive = below about 30%; further: 0% is about no effect; the text of the record puts the active cut at 80%
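Cells: TRPML1-DL, 1X Tet inducer, ~16 h at 37 degrees C/5% CO2. Dye: ABD Ca8 no-wash + quencher, 45-90 min RT. Read: 10 s baseline, compound add, 110 s agonist phase; 54-4 EC80 (4uM final), 110 s antagonist phase.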
The depositor's hits bear a star; ? = inconclusive; nt = not tested or not shown; & = joins results of further samples; [ ] = another dose, or the depositor's remark.

structure | D2 PAM | D2 agonist | Six1-Eya2 inh | CtBP-E1A inh | PINK1 expr mod | TRPML1 agonist
COc1cc(C(=O)NNC(=O)CN2C(=O)NC3(CCCC3)C2=O)cc(OC)c1OC | -3 | -2.4 | 5 | 10 | 0.1% | 0.3
COc1ccc(-n2nnnc2SCC(N)=O)cc1 | 1 | -1.4 | 0 | -1 | 0.8% | -0.4
Cc1ccc(NC(=O)CCC(=O)NNS(=O)(=O)c2ccccc2)cc1C | 3 | 1.3 | 14 | 1 | 0.0% | 0.6
Cc1c(C)[n+](=O)c2c(n1[O-])CCC2 | -1 | 0.8 | 2 | 3 | 1.6% | -0.5
CC(C)C[C@H](NC(=O)c1[nH]cnc1C(=O)N[C@@H](Cc1ccccc1)C(=O)OC(C)(C)C)C(=O)OCc1ccccc1 | -4 | -0.6 | 4 | nt | 11% | 0.3
CN(C)Cc1ccccc1CNC(=O)c1cccc(S(=O)(=O)Nc2ccc3c(c2)OCO3)c1 | -43 | -2.0 | -4 | -4 | 0.0% | 0.2
COc1cc(C(=O)N2CCN(C(=O)C(Cc3cc(C)ccc3C)NC(C)=O)CC2)cc(OC)c1OC (configuration not stated) | -1 | -1.7 | 1 | 4 | -2.1%[38.3 µM] | 0.1
CCn1c(SCC(=O)c2cc(OC)ccc2OC)nnc1-c1ccncc1 | -9 | 0.8 | 2 | 2 | nt | 0.7
O=C(CSc1nnc(NC(=O)C2CC2)s1)NCc1ccco1 | -2 | -6.1 | -1 | -2 | -0.8% | -0.3
N/C(=N\OC(=O)c1cc(-c2ccccc2)nc2ccccc12)c1ccc(Cl)cc1 | -2 | -1.3 | 8 | 1 | 24%[38.3 µM] | 0.0
Cc1cc(NC(=O)COC(=O)C2CC(=O)N(c3ccc(Cl)cc3)C2)no1 (configuration not stated) | -5 | -4.5 | 6 | 1 | -1.0% | 0.8
COc1ccc(N2C(=O)CC(Sc3nc(C)c4c(n3)CCCC4)C2=O)cc1 (configuration not stated) | 17 | 1.1 | -2 | 2 | 10% | -0.5
COc1ccc(CN(C)C(=O)C2CCN(C(=O)Nc3ccccc3)CC2)cc1OC | -4 | -7.0 | 9 | 1 | 1.7% | 0.1
COc1cc(S(=O)(=O)N(C)C2CCCCC2)c(C)cc1C | -2 | -1.2 | 17 | 23 | 5.8% | 3.3
CNC(=O)NC(=O)COC(=O)CCCOc1ccc(OC)cc1 | -1 | 4.2 | 2 | 3 | -1.4% | 1.1
CCN(c1ccccc1)S(=O)(=O)c1ccc(N)c(OC)c1 | -7 | -4.7 | -2 | -2 | 4.3% | 2.9
COc1ccc(C(=O)NCc2csc(C)n2)cc1OC1CCN(C(C)=O)CC1 | -1 | -1.9 | 9 | -7 | -0.7% | -0.2
CCOc1ccc(-c2nnn(CC(=O)N3CCN(c4ccc(OC)cc4)CC3)n2)cc1OCC | -3 | -2.2 | -5 | -16 | 1.0%[38.3 µM] | 0.8
O=C(COC(=O)c1ccc([N+](=O)[O-])s1)NNC(=O)c1ccccc1 | 13 | 3.5 | -1 | nt | 0.2% | -0.3
Cc1ccccc1C(=O)Nc1ccnc(-c2ccncc2)n1 | -3 | -7.7 | 0 | 15 | 3.7% | 0.3
Cc1ccc2nc(NCc3ccccc3)c(C=NCc3ccccc3)c(=O)n2c1 | -1 | -1.6 | 5 | 6 | 12% | -0.1
OCC1(Cc2ccccc2)CCN(CCCC2CCCC2)CC1 | -22 | -0.2 | 9 | -2 | 3.3% | 0.0
CCn1cnc2c1c(=O)n(CC(=O)NCC(F)(F)F)c(=O)n2Cc1ccccc1 | 5 | -1.0 | 2 | 2 | -0.5% | 0.4
OCCNC(=S)NCc1ccccc1 | -9 | -4.4 | 6 | nt | 1.7% | -0.5
Cc1ccc(N(CC(=O)NC(C)(C)C)C(=O)CNC(=O)c2cccs2)cc1 | -12 | -4.8 | -4 | 3 | 3.0% | 0.0
Cc1cc(C(=O)NCCCOC(C)C)c2ccccc2n1 | -6 | -0.6 | 0 | 10 | ? | 0.0
COc1cccc(OC)c1-c1nn2c(-c3ccccc3Cl)nnc2s1 | -1 | 0.8 | -4 | -1 | -4.9% | 0.3
Cc1noc(C)c1-c1nc(CSc2ccccc2)no1 | -1 | 1.2 | 16 | 30 | 3.7% | 1.7
COc1cccc(CCNC(=O)CC2C(=O)NCCN2CC(C)(C)C)c1 (configuration not stated) | -3 | 4.0 | 4 | 3 | 2.7% | 0.0
COc1cccc2cc(C(=O)NCc3ccccc3)c(=N)oc12 | 0 | -6.1 | -1 | 1 | 1.6% | 0.0
O=C(Cn1nc(-c2cccc(Cl)c2)ccc1=O)Nc1ccc(C(=O)NC2CC2)cc1 | 4 | -3.0 | 1 | -14 | -0.1% | 0.1
O=C(Oc1ccccc1Cl)c1ccc(-n2cncn2)nc1 | -19 | -3.0 | -17 | -6 | 30%[38.3 µM] | -0.7
CCOc1ccc(S(=O)(=O)N2CCN(Cc3ccc4c(c3)OCO4)CC2)cc1Cl | -26 | -11 | -14 | -9 | 1.4% | -1.0
COc1ccccc1C(NC(C)=O)c1cc(Cl)c2cccnc2c1O (configuration not stated) | -8 | -8.6 | ? | ? | 12%&1.5% | 0.3&0.0
Nc1ccc(C(=O)OCc2ccncc2)cc1[N+](=O)[O-] | -3 | -2.4 | -5 | -21 | -1.1% | -0.2
CCCc1cc(=O)[nH]c(SCC(=O)c2c(N)n(C)c(=O)n(C)c2=O)n1 | 0 | -1.9 | -2 | -1 | 2.4% | -0.8
Cc1ccc(NC(=O)N2Cc3ccccc3CC2C(=O)NC(C)(C)C)cc1 (configuration not stated) | 1 | -4.3 | 6 | 5 | -0.3% | -0.5
Cc1ccccc1Nc1nc(N)nc(COC(=O)c2cccc(S(=O)(=O)NCc3ccccc3)c2)n1 | -30 | -1.0 | -13 | -19 | -0.4% | 0.3
O=C(OCc1cccc2ccccc12)c1ccc2c(=O)[nH]c(CN3CCOCC3)nc2c1 | -4 | 3.2 | 6 | -3 | -1.5% | 1.9
COc1cccc(OCC(=O)Nc2ccccc2C(N)=O)c1 | 4 | -1.1 | 2 | 11 | 0.6% | -0.2
CCN(CC)CC(C)CNC(=O)CC(C(=O)N1CCc2ccccc21)n1ccnc1 (configuration not stated) | -3 | -1.7 | 0 | 7 | 11%[38.3 µM] | 0.0
CC(=O)Nc1ccc2c(c1)C(=O)c1ccccc1C2=O | -6 | -4.5 | ? | ? | -0.4% | 0.1
CCOC(=O)C1=C(C)N=C2SCCC(=O)N2C1c1sccc1C (configuration not stated) | -1 | 0.7 | -8 | -3 | 1.1% | 1.6
COCCn1c(SCC(=O)Nc2ccc(Cl)cn2)nc2ccccc21 | 13 | -2.0 | -2 | 1 | 2.8%[38.3 µM] | 3.4
Cn1c(=O)c2c(SCC(=O)NCCc3ccccc3)nc(C3CC3)nc2n(C)c1=O | 0 | 1.4 | -1 | 11 | -1.3% | 0.8
C=C1CC2C(CCC3(C)C2CCC3(O)C(C)=O)C2(C)CCC(=O)C=C12 (configuration not stated) | -2 | 4.4 | -3 | 14 | -2.1% | -0.4
Cc1cccc(NC(=S)NC2CCCC2)n1 | -12 | 5.4 | -7 | nt | 2.4% | 0.5
Cc1ccc(Cl)cc1N1CCN(C(=O)COc2ccc(S(=O)(=O)NC(C)C)cc2)CC1 | -1 | -4.4 | 0 | 3 | 0.2% | 0.9
CCN(CC)S(=O)(=O)c1ccc(C(=O)N2CCN=C2SC)cc1 | -7 | -0.9 | 9 | 1 | 1.1% | 0.5
Cc1ccc(S(=O)(=O)N2CCC[C@H]2C(=O)NCc2ccccc2Cl)cc1 | -16 | 1.0 | 0 | 4 | 2.9% | 0.7
CC(C)(C)OC(=O)N(CCc1ccccc1)Cc1ccccc1OCc1cccc(NC(=O)C2CCCC2)c1 | -2 | -0.1 | ? | -11 | ? | 0.0
CCc1ccc(N2CC(C(=O)N3CCCC3)CC2=O)cc1 (configuration not stated) | -3 | -1.0 | 4 | 2 | 0.7% | -0.6
COCC(=O)N1CCCC(C(=O)c2ccc(-c3ccccc3)cc2)C1 (configuration not stated) | -2 | -4.0 | 1 | 0 | 1.4% | -0.5
O=[N+]([O-])c1cccc(N=Cc2ccccc2)c1 | -10 | -5.2 | 0 | 1 | -0.4% | 0.2
CC(C)(C)S(=O)(=O)/C(C#N)=N/Nc1ccc(C#N)cc1 | -15 | -7.5 | 0 | 0 | 24% | -0.4
CCOc1ccccc1OC(=O)c1ccco1 | -9 | 2.7 | 15 | -8 | -2.4% | 2.2
Cc1cccc(N2CCCn3c2nc2c3c(=O)n(CCN3CCOCC3)c(=O)n2C)c1 | 5 | 1.3 | 0 | 5 | 5.5%[38.3 µM] | 4.4
Cc1ccc2nc(SCC(=O)N/N=C/c3ccc(C(=O)O)cc3)cc(C)c2c1 | 9 | -2.6 | -6 | nt | 0.8% | -0.3
CC(C)CN1C2CCCC1CC(NC(=S)NCc1ccco1)C2 (configuration not stated) | -14 | 0.7 | -7 | 8 | -0.7% | -0.4
CCC(=O)c1cc(Br)ccc1OCC(=O)N1CCN(S(=O)(=O)c2ccccc2)CC1 | 1 | -0.5 | 7 | -22 | 1.6% | 2.5

Part of the list above, reduced to D2 agonist.
mol | D2 agonist
CCc1ccc(N2CC(C(=O)N3CCCC3)CC2=O)cc1 (configuration not stated) | -1.0
COCC(=O)N1CCCC(C(=O)c2ccc(-c3ccccc3)cc2)C1 (configuration not stated) | -4.0
O=[N+]([O-])c1cccc(N=Cc2ccccc2)c1 | -5.2
CC(C)(C)S(=O)(=O)/C(C#N)=N/Nc1ccc(C#N)cc1 | -7.5
CCOc1ccccc1OC(=O)c1ccco1 | 2.7

Additional results
structure | D2 PAM | D2 agonist | Six1-Eya2 inh | CtBP-E1A inh | PINK1 expr mod | TRPML1 agonist
CCC1CCc2c([nH]c3ccccc3c2=O)O1 (configuration not stated) | 7 | 4.7 | -6 | -4 | -1.0% | 0.9
Cc1cccc(NC(=O)CSc2nnc3ccc(-c4cccnc4)nn23)c1 | 3 | -2.2 | -5 | -1 | 1.7% | -0.6
CCCN(C(=O)c1cc(Cl)nc2ccccc12)C1CCS(=O)(=O)C1 (configuration not stated) | -9 | 5.1 | 5 | -1 | -2.2% | 0.8
CCOC(=O)C1=NN(c2ccccc2)C2=NC(C)=C(C(=O)OC)C(c3cccs3)N12 (configuration not stated) | -28 | -3.1 | -9 | -12 | nt | 0.0
CCNC(=S)Nc1cc(OCC)c(N2CCOCC2)cc1OCC | 1 | 0.9 | 6 | 20 | 4.8% | 0.0
CC(C)Cc1cc(C(=O)N2N=C(C(F)F)CC2(O)C(F)F)c2ccccc2n1 (configuration not stated) | -1 | -0.4 | -1 | 2 | 2.4%[38.3 µM] | -0.7
O=C(NCCCCc1ccccc1)c1ccc(Br)o1 | -12 | -1.5 | 1 | -9 | -0.8%[38.3 µM] | 0.4
CCOC(=O)C1CCN(C(=O)Cc2c(C(=O)O)[nH]c3ccccc23)CC1 | 4 | -1.9 | 3 | 9 | -3.1% | -0.1
CC(C)N1C(=O)/C(=C/c2nc3ccccc3c(=O)n2-c2ccccc2)c2ccccc21 | -7 | -3.2 | ? | -16 | -2.6% | 3.0
COc1c(C)cc(C(O)c2ncc(-c3ccccc3Cl)[nH]2)cc1C (configuration not stated) | -7 | -1.9 | -13 | 0 | 4.2% | -1.0
Fc1cccc(C[n+]2csc3ccccc32)c1 | -4 | -3.2 | -9 | -7 | 2.0% | 1.9

Screens from PubChem BioAssay.
